# Assay outcomes deposited in PubChem by SRMLSC.
# H5N1 CPE – MDCK cell protection from H5N1 avian flu; 96,000 compounds, 0.07% hits; cytopathic effect, luminescence, 72 h; stronger effect = higher value; no value below 0 was filed and about half of the inactive calls have no number; reference of the scale not given here; inhibition, % at 50 µM; in the data active means inhibition above about 25%
# An asterisk follows results filed as active; i = inactive.
SMILES,H5N1 CPE
Cc1ccc(SCCNC(=O)CN2C(=O)c3ccccc3S2(=O)=O)cc1,i
CC(C)(C)NCc1cc2ccccc2[nH]c1=O,0.3
Cc1nc2cc(C(=O)NCCN3CCOCC3)ccc2n1-c1ccc(F)cc1F,i
CCOC(=O)c1cccc(NC(=O)c2cnc3ccccc3n2)c1,i
N#Cc1cc2c(nc1SCC(=O)Nc1sc3c(c1C#N)CCC3)CCCC2,0.3
Cc1cccc(NC(=O)CCSc2nc(C)cc(C)n2)c1,i
O=C(O)c1ccc2[nH]c3c(c2c1)CSCC3,5.4
O=C(NCCN1CCOCC1)c1cn(CCc2ccccc2)nn1,0.4
Cc1cc(C(=O)Nc2ccc3c(c2)OCCO3)co1,1.2
c1ccc(-c2ccc(OCCOCCn3cncn3)cc2)cc1,i
COc1ccc(N2C(=O)CCC(C(=O)NCc3ccccn3)C2c2ccc(F)cc2)cc1 (stereo not drawn),0.3
CCNC(=S)NNC(=O)CCn1c2ccccc2c2ccccc21,0.8
COC(=O)c1ccc(NC(=O)c2cccc(Cl)c2)o1,i
O=C(NCc1nnc(SCC(=O)N2CCCC2)o1)c1c(F)cccc1Cl,i
Cc1nonc1NC(=O)CSc1nnc(-c2ccoc2C)n1CC(C)C,i
COc1cccc(-c2nn(C)c3sc(C(=O)NCc4ccc(C)o4)cc23)c1,i
O=C1CN=C(Nc2cccc(C(F)(F)F)c2)N1C1CCCC1,i
Cc1ccc(NC(=O)O/N=C2\CCCCC2c2ccc([N+](=O)[O-])cc2[N+](=O)[O-])cc1 (stereo not drawn),0.3
O=C1CCCC/C1=C\Nc1ccccc1C(=O)O,i
O=S(=O)(c1ccc2c(c1)OCCO2)N1CCN(c2nc3ccccc3s2)CC1,1.2
Cc1cccc(C)c1NC(=O)CN(C)CC(=O)Nc1ccccc1Br,0.2
CCn1c(=N)n(CC(O)c2ccccc2)c2ccccc21 (stereo not drawn),i
CCOC(=O)C1=C(C)NC2=C(C(=O)C(C(=O)OCC)C(c3ccc(OC)cc3)C2)C1c1ccccn1 (stereo not drawn),i
COc1cccc(Nc2nnc(SCC(=O)N3CCOCC3)s2)c1,0.3
CC1CCCCN1C/C=C/c1ccccc1[N+](=O)[O-] (stereo not drawn),3.2
CCn1c(SCC(=O)Nc2cc(NC(C)=O)ccc2OC)nnc1-c1ccncc1,1.1
CC12CCC(c3c(C(=O)O)nn(-c4ccccc4)c31)C2(C)C (stereo not drawn),i
COC(=O)c1ccc(NC(=O)C2CC2)o1,2.3
CCN(C(=O)c1cccnc1)c1ccccc1,0.8
CN(C)CCCN=Cc1c(O)n(Cc2ccccc2)c(=O)c2ccccc12,i

# An excerpt of these results, with tabs.
compound	H5N1 CPE
Cc1cccc(C)c1NC(=O)CN(C)CC(=O)Nc1ccccc1Br	0.2
CC1CCCCN1C/C=C/c1ccccc1[N+](=O)[O-] (stereo not drawn)	3.2
CCOC(=O)C1=C(C)NC2=C(C(=O)C(C(=O)OCC)C(c3ccc(OC)cc3)C2)C1c1ccccn1 (stereo not drawn)	i

# Further records
SMILES,H5N1 CPE
CSc1cccc(NC(=O)CSc2ccc(Cl)cc2)c1,i
CC(=O)c1c(C)oc2ccc(NS(=O)(=O)c3ccc(O)c(C(=O)O)c3)cc12,i
CO/N=C/c1ccc(Sc2ccc(C)cc2)c([N+](=O)[O-])c1,i
COCCCN1C(=O)C(O)=C(C(=O)c2ccc(C)o2)C1c1cccc(Br)c1 (stereo not drawn),0.3
COCCOC(=O)c1c(N)n(Cc2ccccc2)c2nc3ccccc3nc12,1.0
N#Cc1ccccc1/C=N/Nc1nc(-c2ccccc2)c2cc(Cl)ccc2n1,i
CCC1CCC/C1=N\NC(=O)c1cc(C)[nH]n1 (stereo not drawn),0.1
O=C(OC(C(=O)NCc1cccs1)c1ccccn1)c1cccs1 (stereo not drawn),1.0
COc1cc(S(=O)(=O)N2CCOCC2)ccc1NC(=O)COC(=O)CC12CC3CC(CC(C3)C1)C2,i
Cn1nc(-c2ccccc2)c(CSc2cccc(Cl)c2)c1Cl,i
O=C(Nc1ccc2c(c1)CCC2)C1CCCO1 (stereo not drawn),i
Cc1ccc(S(=O)(=O)N(C)c2nonc2C)cc1,i
Cc1ccc(S(=O)(=O)N2C(=O)CCC2C(=O)N2CCN(C)CC2)cc1 (stereo not drawn),i
O=C(Nc1cccc(F)c1)C1CCN(C(=O)c2ccc(Br)cc2)CC1,i
COC(=O)c1cc(OC)c(OC)cc1NC(=O)C1CCCO1 (stereo not drawn),i
COc1ccc2c(c1OC)CN(C)CCc1cc3c(cc1C(O)C2)OCO3 (stereo not drawn),i
COc1ccccc1C1C2=C(COC2=O)Nc2cc3c(cc21)OCO3 (stereo not drawn),i
CCOc1ccc(CC2C(=O)NC(=O)N(c3ccc(CC)cc3)C2=O)cc1 (stereo not drawn),0.1
CCN1C(=O)/C(=C2/Sc3ccc(OC)cc3N2C)SC1=Nc1cccc(O)c1,0.4
O=C(COC(=O)c1cccnc1Nc1ccccc1F)NCCN1C(=O)CSC1=O,0.1

# Exported bar-delimited: entries from further up.
smiles | H5N1 CPE
CCN1C(=O)/C(=C2/Sc3ccc(OC)cc3N2C)SC1=Nc1cccc(O)c1 | 0.4
O=C(COC(=O)c1cccnc1Nc1ccccc1F)NCCN1C(=O)CSC1=O | 0.1

# Carrying on.
SMILES,H5N1 CPE
CCN(CCCNC(=O)CNC(=O)Cn1cnc2ccccc2c1=O)c1ccccc1,i
CCc1c(C)sc(NC(=O)C2CCCCC2C(=O)O)c1C(N)=O (stereo not drawn),0.3
c1ccc2c(c1)OCC(c1nn3cnnc3s1)O2 (stereo not drawn),0.8
O=C(Nc1ccc(S(=O)(=O)N2CCOCC2)cc1)c1ccc(Cl)s1,i
O=S(=O)(NCCNS(=O)(=O)c1ccc(F)cc1)c1ccc(F)cc1,i
Cc1ccc(C(=O)N/N=C\c2ccc[nH]2)cn1,0.8
CNCCCNCc1ccc(SC)cc1,0.2
CC(C)C1S/C(=N/N=C/c2ccco2)NC1=O (stereo not drawn),i
CCC(=O)Nc1nc2ccc3nc(C)sc3c2s1,1.8
O=C(CN1CCCCC1)N1c2ccccc2Oc2ccccc21,i
c1ccc(C(c2nnnn2Cc2cccs2)N2CCN(C3CCCC3)CC2)cc1 (stereo not drawn),0.7
Cc1nnc(SCC(=O)Nc2ccccc2NC(=O)CSc2nnc(C)s2)s1,1.8
Cc1cc(C)cc(Nc2ncc3c(n2)CC(c2ccco2)CC3=O)c1 (stereo not drawn),i
CCc1ccc(NCCC(=O)c2ccc(Cl)cc2)cc1,i
C=CCNC(=O)C1CC(=O)N(c2ccc(OCC(=O)Nc3cccc(OC)c3)cc2)C1 (stereo not drawn),i
CCOC(=O)c1sc(=S)n(-c2cc(OC)ccc2OC)c1N,i
COc1ccccc1Nc1nc(-c2cccs2)cs1,0.7
COCCn1c(SCC(=O)c2cccc(OC)c2)nnc1-c1ccco1,1.0
c1ccc(-c2noc(-c3ccc4ccccc4c3)n2)cc1,i
O=C(CCNS(=O)(=O)c1cccs1)NCc1ccco1,0.4
Cc1cc2ccccc2c(=O)n1CC(=O)NCC(=O)N1CCN(c2ccccc2F)CC1,0.1
Cc1cc(NC(=O)Cn2nc(C(F)(F)F)c3c2CCCC3)no1,0.7
O=C(CSc1ccc(-c2ccc(F)cc2)nn1)N1CCCCC1,1.4
COc1ccccc1NC(=O)C(O)C(O)C(=O)Nc1ccccc1OC (stereo not drawn),i
Cc1cccc(-n2nnc(C(=O)NCc3ccc4c(c3)OCO4)c2N)c1,0.7
CCOC(=O)Cc1cn2c(=O)cc(CSCC(=O)Nc3ccc(C)c(C)c3)nc2s1,0.2
CCCCn1c(O)c(C(C)=Nc2c(C)n(C)n(-c3ccccc3)c2=O)c(=O)[nH]c1=O,i
Cc1cc(N2CCN(c3ccccc3)CC2)n2c(n1)nc1ccccc12,2.2
O=C(CSc1nnc(CNc2ccc(F)cc2)o1)OC1CCCCC1,i
CC(=O)c1ccc(N2CCN(C(=O)c3cc(C)on3)CC2)cc1,i
Cc1ccc(NS(=O)(=O)c2cccc(C(=O)O)c2)c(C)c1,i
CCn1cc(C(=O)OCC(=O)OC2CC(C)CCC2C(C)C)c(=O)c2ccc(C)nc21 (stereo not drawn),i
O=C(CCN1CCN(c2ccc(Cl)cc2)CC1)Nc1ccccc1F,i
O=c1c(-c2ccccc2)nc(-c2ccccc2)cn1O,i
CS(=O)(=O)N1CCC(C(=O)Nc2ccc(Cl)c(C(F)(F)F)c2)CC1,0.4
Cc1noc(NC(=O)c2ccccc2Cl)c1C#N,0.7
O=C(NCc1ccncc1)c1ccc(Cn2cc(C(F)(F)F)ccc2=O)cc1,0.3
O=C(NCc1ccccc1)c1ccc(CN(c2ccccn2)S(=O)(=O)c2ccccc2)cc1,i
CC(C)(C#CCN1CCCC1)OCCC#N,1.1
CCOC(=O)c1sc2nc(C)c3c(c2c1N)CC(C)(C)OC3,1.1

# Single entries from the list:
# Result for CCC(=O)Nc1nc2ccc3nc(C)sc3c2s1 under H5N1 CPE: 1.8
# Result for CC(C)(C)NCc1cc2ccccc2[nH]c1=O under H5N1 CPE: 0.3

# The list continues.
SMILES,H5N1 CPE
COc1ccc(Br)cc1CN1CCN(CCO)CC1,0.6
CC(C)COc1ccc(CSCCNC(=S)Nc2ccccc2)cc1,0.9
CCN(CC)S(=O)(=O)c1ccc(NC(=O)Nc2cccc(C(F)(F)F)c2)cc1,i
COc1ccc(CNC(=O)c2cc(-c3cccs3)on2)cc1,0.0
CCOC(=O)c1cc(-c2ccc(C#N)cc2)nc2c1c(C)nn2CCC#N,i
CCC(=O)N1CCc2cc(S(=O)(=O)NCCC(=O)Nc3ccccc3C)ccc21,0.5
COCC(=O)NC1CCN(C(=O)NCc2ccccc2)CC1,i
CCCc1ncc(C(O)c2ccc(OC)cc2)n1C (stereo not drawn),i
CCC(=O)c1c[nH]c(C(=O)NCc2ccco2)c1,3.0
COc1ccc(CN2C(=O)CC(=O)NC2=O)cc1,1.1
O=C(NCCc1ccccc1)C1CCN(S(=O)(=O)c2cccnc2)CC1,1.1
COc1ccc(-n2c(Cc3cccn3C)nnc2SCC(=O)Nc2nccs2)cc1,0.8
CCOc1ccc(NC(=O)CN2CC(c3ccccc3)CC2=O)cc1 (stereo not drawn),1.6
C=CCNCc1cccn1-c1ccccc1,i
c1c2c(cc3sc(N4CCOCC4)nc13)OCCO2,i
O=C(CCCn1c(=S)[nH]c2ccc(Br)cc2c1=O)NCC1CCCO1 (stereo not drawn),0.0
CC(=O)C1=C(O)C(=O)N(CCCn2ccnc2)C1c1ccc(C)cc1 (stereo not drawn),0.2
Cn1cc(S(=O)(=O)N2CCN(c3ccccc3)CC2)c(=O)n(C)c1=O,i
COc1cc(NC(=S)NC(=O)c2ccccc2C)ccc1NC(=O)c1cccs1,i
O=C(NNc1cccc(Cl)n1)Nc1ccccc1Cl,i
c1ccc(Cn2nnc3c(NCc4ccc5c(c4)OCO5)nc(C4CC4)nc32)cc1,i
COc1ccc(Cl)cc1N1C(=O)C2CCCN2C1c1cccc(F)c1 (stereo not drawn),i
COc1ccc2nc(NC(=O)Cc3cccs3)sc2c1,i
CCCC(c1nnnn1Cc1ccco1)N1CCN(c2cc(Cl)ccc2C)CC1 (stereo not drawn),i
COc1cc(OC)c(CN2CCCCCCC2)cc1Br,i
O=C(c1cccnc1Nc1ccc2c(c1)CCC2)N1CCOCC1,0.2
CC1(C)CSC(=S)N1S(=O)(=O)c1ccccc1,0.3
CCc1ccccc1NC1=NCC(=O)N1Cc1ccc(OC)cc1,i
CCOc1ccc(C2N(c3cc(Cl)ccc3OC)C(=O)C3CCCN32)cc1OC (stereo not drawn),i
CCN(CC)CCNC(=O)CCc1n[nH]c(=O)c2ccccc12,0.4
CN(C1CCCCC1)S(=O)(=O)c1ccc(C(=O)O)cc1,0.1
CCSc1nnc(NC(=O)COc2ccccc2)s1,i
CCNS(=O)(=O)c1ccc2nc(NC(=O)c3cccnc3)sc2c1,0.9
O=C(NC(=S)Nc1ccc(C(=O)N2CCOCC2)cc1)c1ccc([N+](=O)[O-])cc1,i
COCC(=O)Nc1nc2n(n1)C(c1ccc(Cl)cc1)CC(c1ccc(OC)cc1)N2 (stereo not drawn),i
COC(=O)CN1C(C)=Nc2ccc(Br)cc2C1c1ccccc1 (stereo not drawn),i
Cc1ccc2oc(=O)c3cnn(CC(=O)NC4CCC(C)CC4)c3c2c1 (stereo not drawn),1.2
COc1cccc(N2CCN(c3ncnc4c3[nH]c3ccccc34)CC2C)c1 (stereo not drawn),2.5
N#CCCN(CC(=O)O)S(=O)(=O)c1ccccc1,i
O=C(Nc1ccc(Nc2ccccc2)cc1)N1CCOCC1,i
CC1(c2ccc(OC(F)F)cc2)NC(=O)N(CC(=O)NC2CCCCC2)C1=O (stereo not drawn),i
COC(=O)C1C2C=CC3(CN(C(C)c4ccc(OC)cc4)C(=O)C13)O2 (stereo not drawn),0.3
COc1ccc(N(CC(=O)N2CCc3ccccc3C2)S(=O)(=O)c2c(C)nn(C)c2C)cc1,i
Cc1ccc(CNC(=O)CNS(=O)(=O)c2cccc3nsnc23)cc1,3.3
Cc1cc(NC(=O)c2ccco2)ncc1NC(=O)Cc1ccccc1,i
N#C/C(=C\c1ccc(Cl)cc1)c1nc2ncccc2[nH]1,1.3
COc1ccc(Sc2cc(C(F)(F)F)nc(-c3ccccn3)n2)cc1,i
CCN(CC(=O)Nc1ccc2c(c1)OCO2)Cc1nc2ccccc2c(=O)[nH]1,i
CCN(CC)CCNC(=O)C12CC3CC(CC(C3)C1)C2,i

# 2 neighbouring entries from above, quoted:
SMILES,H5N1 CPE
CCN(CC(=O)Nc1ccc2c(c1)OCO2)Cc1nc2ccccc2c(=O)[nH]1,i
CCN(CC)CCNC(=O)C12CC3CC(CC(C3)C1)C2,i

# Only part of the results is shown; the hit share may differ from the screen's.
